Screening results as filed in PubChem.
VDR inh: blocks the human vitamin D receptor | Potency, µM, for the others: max response, negative = inhibition, hits mostly inhibitors | AID 504847 | actives 0.93% (n = 400,000) | VDR-SRC2-3 peptide fluorescence polarization, 2 h; active means well fitted inhibition curve with a large enough effect; inconclusive means small, poorly fitted or top-dose-only effect, or another doubt; inactive means no such curve, though single readings can be large or run the other way; further: series mostly up to about 120 µM
Target sequence (P11473 whole entry, looked up): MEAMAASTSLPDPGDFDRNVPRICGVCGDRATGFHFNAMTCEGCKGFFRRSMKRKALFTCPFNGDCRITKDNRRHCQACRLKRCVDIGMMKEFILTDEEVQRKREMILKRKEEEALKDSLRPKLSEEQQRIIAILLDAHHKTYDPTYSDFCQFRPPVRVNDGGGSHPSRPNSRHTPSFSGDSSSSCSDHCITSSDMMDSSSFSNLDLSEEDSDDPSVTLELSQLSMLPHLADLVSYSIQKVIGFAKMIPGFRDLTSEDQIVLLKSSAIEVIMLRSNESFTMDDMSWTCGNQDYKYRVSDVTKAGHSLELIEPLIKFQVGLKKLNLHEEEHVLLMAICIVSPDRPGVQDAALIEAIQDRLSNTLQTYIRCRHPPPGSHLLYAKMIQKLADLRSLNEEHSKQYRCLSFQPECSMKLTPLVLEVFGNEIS
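Compounds are added to VDR with labelled SRC2-3 coactivator peptide and held 2 h at room temperature. Inhibition of the VDR–peptide interaction is then read as a change in fluorescence polarization.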
Active calls of the source: *; & = joins results of further samples; [ ] = dose if it differs, or a comment. On the % scale 0 is the no-effect control and ±100 the full control effect; potency means the concentration at half of the fitted maximal effect. Only part of the results is shown; count on the stated rates, not on these rows.

Start of the data: the first 5 entries, to show the layout:
Results for CCOc1ccc(C(=O)OCC(=O)Nc2nc(OC)cc(OC)n2)cc1OCC ?
VDR inh: -1%

What do the screens show for `O=C(Nc1ccc2[nH]c(=O)[nH]c2c1)Nc1ccc(F)cc1F`?
VDR inh: inconclusive

Results for CCCCn1c(Cc2ccccc2)n[nH]c1=S ?
VDR inh: -13%

What do the screens show for `O=C(CCS(=O)(=O)Cc1ccccc1)Nc1ncc([N+](=O)[O-])s1`?
VDR inh: 3%

What do the screens show for `c1ccc(COc2ncnc3c2ncn3CCCNCCN2CCOCC2)cc1`?
VDR inh: 5%

All compounds of this part, from the start:
Results for CCOc1ccc(C(=O)OCC(=O)Nc2nc(OC)cc(OC)n2)cc1OCC ?
VDR inh: -1%

What do the screens show for `O=C(Nc1ccc2[nH]c(=O)[nH]c2c1)Nc1ccc(F)cc1F`?
VDR inh: inconclusive

Results for CCCCn1c(Cc2ccccc2)n[nH]c1=S ?
VDR inh: -13%

What do the screens show for `O=C(CCS(=O)(=O)Cc1ccccc1)Nc1ncc([N+](=O)[O-])s1`?
VDR inh: 3%

What do the screens show for `c1ccc(COc2ncnc3c2ncn3CCCNCCN2CCOCC2)cc1`?
VDR inh: 5%

How did COc1ccccc1NC(=O)COc1ccc(C(F)(F)F)cc1[N+](=O)[O-] do in these assays?
VDR inh: -11%

How did Cc1cc(C)cc(CC2CC(=O)N(c3cc(C)on3)C2=O)c1 (stereo not drawn) do in these assays?
VDR inh: inconclusive

What do the screens show for `CC1(C)Cc2ccccc2-c2nc(NCCO)n(-c3ccccc3)c(=O)c21`?
VDR inh: 3%

Results for COC(=O)[C@@H](NC(=O)NC1CCCCC1C)C(C)C (stereo partly drawn) ?
VDR inh: 4%

What do the screens show for `CCC(C)n1c(SCc2ccccc2)nc2ccsc2c1=O` (stereo not drawn)?
VDR inh: -22%

Results for Oc1ccc(Cl)cc1C1C=C(c2ccc3c(c2)OCO3)NC(c2ccc(Cl)cc2)N1 (stereo not drawn) ?
VDR inh: inconclusive

How did COc1ccc(N2CCN(C(=O)COC(=O)CCc3ccccc3)CC2)cc1 do in these assays?
VDR inh: -11%

How did O=C(OCC(=O)c1ccc[nH]1)c1ccc(Cl)nc1 do in these assays?
VDR inh: 6%

How did Cc1ccc(-c2nc3cccnc3s2)cc1NS(=O)(=O)c1ccc2c(c1)OCCO2 do in these assays?
VDR inh: -11%

What do the screens show for `COc1cc(/C=C/C(=O)O)cc(S(=O)(=O)Nc2ccccc2Oc2ccccc2)c1OC`?
VDR inh: 5%

Pulled one by one from above (6):
How did O=C(OCC(=O)c1ccc[nH]1)c1ccc(Cl)nc1 do in these assays?
VDR inh: 6%

What do the screens show for `CC1(C)Cc2ccccc2-c2nc(NCCO)n(-c3ccccc3)c(=O)c21`?
VDR inh: 3%

What do the screens show for `c1ccc(COc2ncnc3c2ncn3CCCNCCN2CCOCC2)cc1`?
VDR inh: 5%

Results for CCCCn1c(Cc2ccccc2)n[nH]c1=S ?
VDR inh: -13%

What do the screens show for `CCC(C)n1c(SCc2ccccc2)nc2ccsc2c1=O` (stereo not drawn)?
VDR inh: -22%

What do the screens show for `O=C(CCS(=O)(=O)Cc1ccccc1)Nc1ncc([N+](=O)[O-])s1`?
VDR inh: 3%

Going on with the list:
What do the screens show for `CSc1ccccc1OCc1cc(C(=O)N2CCc3[nH]cnc3C2c2ccccn2)no1` (stereo not drawn)?
VDR inh: -1%

Results for O=C(CCc1nc(-c2ccc(Cl)cc2)no1)OCc1ccc(Br)cc1 ?
VDR inh: 2%

How did COc1cccc(Cn2cc(C(=O)c3ccccc3)c(=O)c3cc4c(cc32)OCO4)c1 do in these assays?
VDR inh: 4%

Results for CNC(=S)N/N=C/c1ccc(-c2cc([N+](=O)[O-])ccc2Cl)o1 ?
VDR inh: 9%

What do the screens show for `COc1ccccc1NC(=O)/C(C#N)=C/C=C/c1ccco1`?
VDR inh: 36%[activator]

How did CCNC(=O)COc1ccc(C=O)cc1OC do in these assays?
VDR inh: -8%

Results for COc1ccc(NC(=O)CCC(=O)Nc2nnc(C3CCCCC3)s2)cc1 ?
VDR inh: 6%

What do the screens show for `CC(C)[C@H](NC(=O)c1ccco1)C(=O)OCC(=O)N1CCc2ccccc21`?
VDR inh: -8%

What do the screens show for `CC(=O)NC(CC(=O)Nc1nc(C)cs1)c1ccccc1` (stereo not drawn)?
VDR inh: -19%

Results for Cc1cc(O)c(C(C)C)cc1N=Cc1ccc(N(C)C)cc1 ?
VDR inh: 45µM*

How did CSc1nnc(-c2sccc2OCc2ccccc2)n1C do in these assays?
VDR inh: -2%

How did CC[C@]12c3[nH]c4cc(-c5ccco5)ccc4c3CCN1C(=O)[C@@H](CC(=O)NCC13CC4CC(CC(C4)C1)C3)C[C@@H]2C(=O)N1CCN(C(=O)c2ccco2)CC1 do in these assays?
VDR inh: inconclusive

Results for CCOCCCNC(=O)C1CCCN(S(=O)(=O)CC)C1 (stereo not drawn) ?
VDR inh: 22%

Results for COc1ccc(-n2nc3c(N4CCCC(C(=O)NCCc5ccccc5C)C4)nnc(C)c3c2C)cc1 (stereo not drawn) ?
VDR inh: 10%

What do the screens show for `N/C(=N\c1nc2ccccc2o1)NC(=O)c1ccccc1NC(=O)c1ccccc1`?
VDR inh: 9%

How did CC1CCCCC1NC1=NCCS1 (stereo not drawn) do in these assays?
VDR inh: -10%

How did COc1ccc(O)c(C(=O)c2cnn(-c3ccccc3)c2)c1 do in these assays?
VDR inh: -6%

How did O=C(O)CN1C(c2ccccc2O)Nc2ccc(Br)cc2C1c1ccccc1 (stereo not drawn) do in these assays?
VDR inh: -4%

How did CCOc1ccc(CSC(=N)N)cc1Cl do in these assays?
VDR inh: -14%

How did COc1ccc(/C=C2\CCC(C3CCCC3)C2=O)c(OC)c1OC (stereo not drawn) do in these assays?
VDR inh: -15%

What do the screens show for `CC1(c2nnc(-c3ccccc3)o2)CC(c2ccncc2)=NO1` (stereo not drawn)?
VDR inh: -12%

Results for CO/N=C\C(=N\Nc1ccc(OC)cc1)C(=O)c1ccccc1 ?
VDR inh: 10%

Results for COc1ccccc1C(=O)N/C(=C\c1ccc(Br)cc1)C(=O)N1CCCC1 ?
VDR inh: 12%

What do the screens show for `Cc1ccc(NC(=O)Cn2nnc(-c3ccccc3)n2)c(C)c1`?
VDR inh: 9%

What do the screens show for `CC(=O)c1c(C)oc2c1cc(O)c1ccccc12`?
VDR inh: 17%

How did O=C(CCn1cccn1)Nc1cccc(C(F)(F)F)c1 do in these assays?
VDR inh: -8%

What do the screens show for `O=C(COC(=O)CNS(=O)(=O)c1cccc(Br)c1)NC(=O)Nc1ccc2c(c1)OCCO2`?
VDR inh: -2%

Results for COc1ccc(NS(=O)(=O)c2ccc(Cl)s2)cn1 ?
VDR inh: -12%

What do the screens show for `COc1c(O)ccc(/C=C(\C#N)c2nc3ccccc3[nH]2)c1[N+](=O)[O-]`?
VDR inh: 2%

Results for O=C(NCCc1cccs1)C1CC1 ?
VDR inh: -8%

How did CC(C)(C)n1nc2c(c1NC(=O)c1ccccc1C(F)(F)F)CS(=O)(=O)C2 do in these assays?
VDR inh: 8%

How did COc1ccc(CC(=O)N/N=C(\C)c2ccccn2)cc1 do in these assays?
VDR inh: -9%

What do the screens show for `Cc1ccccc1CS(=O)(=O)Cc1ccc(C(=O)NCCc2ccc(Cl)cc2)o1`?
VDR inh: 9%

What do the screens show for `COC(=O)N1CCC[C@@]2(CCN(C(=O)Nc3ccc(OC)cc3)C2)C1`?
VDR inh: 0%

How did CCN(C(=O)CN1C(=O)NC(CCSC)C1=O)C1CCS(=O)(=O)C1 (stereo not drawn) do in these assays?
VDR inh: -7%

What do the screens show for `CC1(C)Oc2ccc3ccc(=O)oc3c2/C(=C/Nc2ccc(O)cc2)C1=O`?
VDR inh: -13%

How did Cc1cccc(C(=O)Nc2cc(OCc3cccc(F)c3)c(Cl)cc2Cl)c1 do in these assays?
VDR inh: 4%

Results for C=CC[C@@H](CC(=O)N[C@H](CO)Cc1ccccc1)C(=O)N[C@H](COC(=O)[C@@H](CC=C)CC(=O)OC(C)(C)C)Cc1c[nH]c2ccccc12 ?
VDR inh: -1%

Results for COc1ccc(NC(=O)c2cc3c(s2)CCC3)cc1S(=O)(=O)N1CCOCC1 ?
VDR inh: -13%

How did O=C(NC1CCCC1)C(c1ccncc1)N(Cc1ccco1)C(=O)c1ccc(-c2ccccc2)[nH]1 (stereo not drawn) do in these assays?
VDR inh: inconclusive

How did C[C@@]12CCC=C[C@H]1[C@H](c1ccc3ccccc3c1/C=C/c1ccccc1)N(Cc1ccccc1)C2=O do in these assays?
VDR inh: -1%

How did CCN(C(=O)COC(=O)c1cc(-c2ccccc2)nn1-c1ccccc1)C1CCS(=O)(=O)C1 (stereo not drawn) do in these assays?
VDR inh: 15%

Results for CCOCC(O)CNc1ccccc1 (stereo not drawn) ?
VDR inh: 10%

Results for c1ccc(CNc2ncncc2-c2ccc3c(c2)OCO3)cc1 ?
VDR inh: 28µM*

How did O=C(Cc1cccs1)NCCc1ccc(Cl)cc1 do in these assays?
VDR inh: 0%

How did CC(=O)Nc1ccc(S(=O)(=O)NC2=C(N3CCN(Cc4ccccc4)CC3)C(=O)c3ccccc3C2=O)cc1 do in these assays?
VDR inh: 5%&-6%

Results for COc1cc(/C=C/c2cccc[n+]2C)ccc1OCC(=O)Nc1ccccc1C ?
VDR inh: 11%

What do the screens show for `COc1ccc2[nH]c(=O)c(CN(Cc3nnnn3CCc3ccccc3)CC3CCCO3)cc2c1` (stereo not drawn)?
VDR inh: -7%

How did CC(=O)NCC(=O)OCC(=O)N1c2ccccc2Sc2ccccc21 do in these assays?
VDR inh: -3%

Results for CSc1ccccc1NC(=O)CN(C)CC(=O)c1[nH]c(C)c(C(C)=O)c1C ?
VDR inh: -18%

Results for CCOC(=O)C1CCN(C(=O)Cc2c(C(=O)O)n(C)c3ccccc23)CC1 ?
VDR inh: -11%

What do the screens show for `COc1ccc(N2C(=O)CSC23C(=O)N(Cc2ccccc2F)c2ccccc23)cc1Cl` (stereo not drawn)?
VDR inh: 0%

How did O=c1[nH]c2ccccc2n1C1=CCNCC1 do in these assays?
VDR inh: -5%

What do the screens show for `CCCCC/C=C\C/C=C\C=C\[C@@H](O)C/C=C\CCCC(=O)O`?
VDR inh: 7%

How did C=CCOC(=O)C1=C[C@H](c2ccccc2)[C@@H](CCCO)[C@H](OCC)O1 do in these assays?
VDR inh: 6%

What do the screens show for `S=C(NCCCc1cnc[nH]1)NCCCN(Cc1ccc(Cl)cc1)c1ncc(Br)cn1`?
VDR inh: -18%

How did COCCCNC(=O)c1cn(C)c(=O)c2cc(OC)c(OC)cc12 do in these assays?
VDR inh: -2%

What do the screens show for `C/C(=N\Nc1ccc2nncn2n1)c1ccccn1`?
VDR inh: 12%

What do the screens show for `O=S(=O)(Nc1ccccn1)c1ccc(C2CCCCC2)cc1`?
VDR inh: -7%

How did Cc1onc(-c2ccccc2)c1C(=O)OCC(=O)NCc1ccc(F)cc1 do in these assays?
VDR inh: 10%

What do the screens show for `Cn1nnnc1Sc1ncnc2scc(-c3ccc(-c4ccccc4)cc3)c12`?
VDR inh: -1%

How did Cc1ccc(C(C)NC(=O)CSc2ccc(S(=O)(=O)N3CCOCC3)cn2)cc1C (stereo not drawn) do in these assays?
VDR inh: 15%

What do the screens show for `COc1ccc2[nH]c(=O)c(CN(CC3CCCO3)C(=S)Nc3ccccc3)cc2c1` (stereo not drawn)?
VDR inh: -14%

What do the screens show for `CCOC(=O)c1sc(N2N=C(C)C(N=Nc3cccc(C)c3)C2=O)nc1C` (stereo not drawn)?
VDR inh: 7%

Results for Cc1nnc(SCC(=O)O)o1 ?
VDR inh: 3%

Results for CC(C)CC(=O)Nc1cccc(C(=O)Nc2ccccc2C(=O)O)c1 ?
VDR inh: -9%

Results for COCCn1c(N)c(N(Cc2ccccc2)C(=O)CSCC(=O)Nc2ccc(C)cc2)c(=O)[nH]c1=O ?
VDR inh: -9%

What do the screens show for `COc1ccc(C2=NN(C(N)=S)C(c3ccco3)C2)cc1` (stereo not drawn)?
VDR inh: 5%

Results for CCC(=O)N/N=C(\C)CC(=O)Nc1cc(Cl)ccc1C ?
VDR inh: 5%

What do the screens show for `CCOC(=O)c1ccccc1NC(=O)CSc1ncc2c(n1)-c1ccccc1N(CC)S2(=O)=O`?
VDR inh: 7%

How did Cc1ccc(OCCCCN2CCc3ccccc3C2)c(C)c1 do in these assays?
VDR inh: -4%

Results for CCC(=O)Nc1cccc(C2=NOC3(C2)C[C@@H](C(N)=O)N(C(=O)c2ccccc2C(=O)c2ccccc2)C3)c1 (stereo partly drawn) ?
VDR inh: 5%

What do the screens show for `Cn1c(=O)c2nc3ccc(NC(=O)C(F)(F)F)cc3nc2n(C)c1=O`?
VDR inh: -6%

Results for Cc1ccc(OCC(=O)Nc2ccc(F)cc2)c([N+](=O)[O-])n1 ?
VDR inh: 7%

How did CC(C)Oc1ccc(C(=O)Nc2nc3c(s2)CC(C(C)(C)C)CC3)cc1 (stereo not drawn) do in these assays?
VDR inh: 7%

How did C=CCNC(=O)CSc1nc2sc3c(c2c(=O)n1CCC)CCC3 do in these assays?
VDR inh: -8%

How did CC(C)C1Cc2c(sc3[nH]c(=S)n(Cc4ccccc4)c(=O)c23)CO1 (stereo not drawn) do in these assays?
VDR inh: 13%

Results for CCCCn1c(N)c(Sc2ccc(Cl)cc2)c(=O)[nH]c1=O ?
VDR inh: 1%

What do the screens show for `CCOC(=O)C1=C(C)NC(=S)N(C(C)=O)C1c1ccccc1` (stereo not drawn)?
VDR inh: -8%
